# HIV Env fusion: inhibitors of HIV Env-mediated cell fusion. 1.1% of 360,000 active. inhibition, % at 12.3 µM. HeLa-JRFL Env/CEM21 cell fusion, luciferase;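 active = mean replicate inhibition score of at least 50 and every replicate individually at or above 50; inconclusive = only one of the two criteria met; inactive = mean below 50 and not all replicates reaching 50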;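 also: 0% = plate neutral controls and 100% = maraviroc near 300 nM; one replicate is shown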
# eIF4H FP inh: inhibitors of RNA binding by human eIF4H. inhibition, % at 35 µM. Q15056. eIF4H fluorescence polarization binding assay. 0.94% of 290,000 active;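 active = 50% or more with normal probe brightness, or confirmed in later tests; inconclusive = above 50% with abnormal brightness, or retests that disagree; inactive = below 50% or failed in later tests; about a fifth of its hits are not listed in these tables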;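 also: calls also rest on retests at 20 µM and on dose response follow-up; 0% = protein and probe with vehicle and 100% = probe without protein; strong numbers were not always called active; many hits fall short of the cut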
# CSC inhib: cancer stem cell inhibition. cancer stem cell-like cells viability, luminescence. inhibition, % at 7.5 µM. 1.1% of 300,000 active;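 active = mean at 75% or more and at least half the replicates too; inconclusive = mean and replicates disagree; tested in HMLE shEcad cells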;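 also: 0% = median of negative and 100% = median of positive control wells; the first replicate is given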
# PABP polyA inh: PABP-poly(A) binding inhibition | PABP-poly(A) RNA binding, fluorescence polarization | inhibition, % at 35 µM | 1% of 290,000 active | AID 2014;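 active = 50% or more with normal probe brightness, or confirmed in later tests; inconclusive = above 50% with abnormal brightness, or retests that disagree; inactive = below 50% or failed in later tests; about a fifth of its hits are not listed in these tables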;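 also: calls also rest on retests at 20 µM and on dose response follow-up; controls were probe without protein and protein plus probe with vehicle; some compounds called inactive have numbers as strong as hits; many hits fall short of the cut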
# Target sequence (P11940 whole entry, looked up): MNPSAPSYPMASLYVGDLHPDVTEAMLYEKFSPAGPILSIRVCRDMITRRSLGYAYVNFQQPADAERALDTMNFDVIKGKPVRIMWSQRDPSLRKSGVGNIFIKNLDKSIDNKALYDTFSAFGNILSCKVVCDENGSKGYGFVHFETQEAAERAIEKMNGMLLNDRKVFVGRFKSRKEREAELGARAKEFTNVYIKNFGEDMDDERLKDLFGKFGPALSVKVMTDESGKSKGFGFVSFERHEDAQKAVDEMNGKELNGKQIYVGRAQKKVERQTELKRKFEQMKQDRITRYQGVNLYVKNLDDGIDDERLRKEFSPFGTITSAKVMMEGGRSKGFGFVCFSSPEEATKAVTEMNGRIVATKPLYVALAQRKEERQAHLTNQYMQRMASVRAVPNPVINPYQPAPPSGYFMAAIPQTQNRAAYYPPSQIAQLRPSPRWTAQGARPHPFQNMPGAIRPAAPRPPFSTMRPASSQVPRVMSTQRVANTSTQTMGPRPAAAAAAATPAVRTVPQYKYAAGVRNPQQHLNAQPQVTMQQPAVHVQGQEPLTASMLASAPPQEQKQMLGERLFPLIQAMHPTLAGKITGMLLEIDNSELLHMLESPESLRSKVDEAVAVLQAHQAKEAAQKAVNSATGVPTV
# Rce1 inh: inhibitors of yeast Ras-converting enzyme | yeast membranes, quenched prenylated peptide cleavage fluorescence | calls only | 0.27% of 290,000 active | AID 2563;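 active = fall in fluorescence gain of 50% or more versus controls, with final raw signal at or below 3038400; inconclusive = same 50% fall but final raw signal above 3038400; inactive = fall in fluorescence gain under 50%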;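 also: plate controls were neutral control wells for no effect and wells lacking membranes for full effect; tested at 10 µM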
# Target sequence (Q03530 whole entry, looked up): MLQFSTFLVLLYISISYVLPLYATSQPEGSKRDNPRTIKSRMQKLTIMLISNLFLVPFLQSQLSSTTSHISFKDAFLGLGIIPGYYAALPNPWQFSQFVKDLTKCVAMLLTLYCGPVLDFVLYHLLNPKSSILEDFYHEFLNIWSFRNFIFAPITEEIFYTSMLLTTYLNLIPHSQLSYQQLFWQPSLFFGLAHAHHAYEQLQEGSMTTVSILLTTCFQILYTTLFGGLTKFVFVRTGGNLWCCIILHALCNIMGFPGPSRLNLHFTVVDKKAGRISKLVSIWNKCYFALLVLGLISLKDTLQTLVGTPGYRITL
# MT1-MMP act inh: MT1-MMP (human) activation inhibition; GFP/RFP ratio change, % at 20 µM; P50281; HT1080 RFP-PRO-GFP cells, GFP/RFP ratio fluorescence, overnight; percent of plate control window, DMSO zero; AID 651647; 0.061% of 360,000 active;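 active = GFP/RFP ratio change of at least 30% with cell ATP level not reduced by more than half and red fluorescence within 50% of control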; also: strong numbers were not always called active
#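 Assay system: RFP-PRO-GFP reporter HT1080 cells; read-out basis: GFP/RFP fluorescence ratio; benchmarks: DMSO wells and RFP-L50D-GFP cells; doses: 20 µM single dose, 1% DMSO; schedule: overnight cell settling, then overnight compound exposure, 37 °C, 5% CO2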
# Yeast UUG start: yeast start codon fidelity modulation | AID 602363 | S. cerevisiae UUG-firefly luciferase reporter, luminescence/redox ratio | activity score, % at 18.7 µM | 0.13% of 350,000 active;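 active = replicate mean at a twofold rise or more, about +100% in these data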;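 also: firefly luciferase made from a UUG start codon reports start codon fidelity; reporter light over untreated wells divided by growth signal over untreated wells; some hits fall short of that in this replicate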
# eIF4H FP inh retest: recorded beside eIF4H FP inh, whose call it bears; inhibition, %; compound at 20 µM; confirmation average;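 mean of two retest wells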
# PABP polyA inh retest: further read-out of PABP polyA inh, marked with its call; inhibition, %; compound at 20 µM; confirmation repeats;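 mean of two retest wells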
# MT1-MMP act inh RFP: also measured in MT1-MMP act inh; calls as there; RFP signal change, %; measured here: RFP expression control read;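 0 = vehicle wells; hits needed this value within 50% of zero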
# Active calls of the source: *; i = inactive; u = inconclusive; x = not tested or not shown; + = active, no number. Compounds were not picked by outcome (roughly 2.9% active in at least one column).
SMILES,HIV Env fusion,eIF4H FP inh,CSC inhib,PABP polyA inh,Rce1 inh,MT1-MMP act inh,MT1-MMP act inh RFP,Yeast UUG start,others
CC1CN(C(=S)Nc2cccc(Cl)c2Cl)CC(C)O1 (stereo unspecified),4,7,-7,0,i,4,3,0,
O=C(CS(=O)c1cccc(Cl)c1)Nc1ccccc1Cl (stereo unspecified),u,-4,-8,-1,i,-2,2,-10,
O=C(CCCn1cnc([N+](=O)[O-])n1)Nc1cccc2ccccc12,14,4,2,-3,i,2,10,-21,
COc1ccc(S(=O)(=O)NCCc2csc(-c3cccnc3)n2)cc1,5,1,-9,1,i,0,4,-13,
Cn1nc2c(c1C(=O)O)CCCC2,x,102*,-7,13*,i,-4,3,-1,eIF4H FP inh retest=98*;PABP polyA inh retest=61*
CCn1c(=O)c(=O)n(CC)c2cc(S(=O)(=O)Nc3cc(C)ccc3C)ccc21,1,-12,5,-7,i,-5,-1,-7,
Cc1ccc2nc(-c3ccc(NC(=S)NC(=O)C(C)C)cc3)sc2c1,x,-4,5,-2,i,0,-3,-12,
O=C(Nc1nnc(-c2ccncc2)s1)Nc1ccccc1F,-61,11,-2,9,i,-7,-15,x,
NC(=O)c1cccc(-c2ccnc3c2CC(C(=O)NCc2cccc(Cl)c2)O3)c1 (stereo unspecified),-50,x,x,x,x,-2,-7,9,
CC(=O)c1c(C)[nH]c(C(=O)OCc2cc(-c3ccco3)on2)c1C,x,x,-2,x,x,-7,-14,-33,
CSc1ccccc1OCc1cc(C(=O)N(C)Cc2nonc2C)no1,-54,3,-7,-18,i,-2,-2,-16,
CCCCn1cc([N+](=O)[O-])nc1C,2,6,-17,-4,i,3,3,-15,
Oc1c(C(c2ccccc2)N2CCc3ccccc3C2)sc2ncnn12 (stereo unspecified),1,4,-11,7,i,0,1,11,
Nc1n[nH]c(=S)n1/N=C1/C(=O)Nc2ccccc21,3,38,x,-10,x,2,4,x,
Cn1c(=O)c(/C=C/c2ccccc2)nc2ccccc21,-83,u,x,-24,i,-3,-1,x,
Cc1ccc(NC2CCCN(C(=O)CN3C(=O)c4ccccc4C3=O)C2)cc1C (stereo unspecified),13,-9,-3,7,i,-1,2,8,
COC(c1ccccc1)c1nnc(CCC(=O)NCCC(C)C)o1 (stereo unspecified),-1,3,-11,-4,i,2,5,x,
COC(=O)NC1(C(F)(F)F)NC(=O)N(C2CCCCC2)C1=O (stereo unspecified),x,-2,6,3,i,2,1,-12,
COc1ccccc1N1CCN(CC(=O)NC(=O)NCc2ccco2)CC1,x,3,8,-5,i,13,10,-6,
Cc1ccc(-c2ocnc2C(=O)Nc2ccccc2C(=O)N2CCCC2)cc1,7,7,x,-1,i,2,1,-8,
CC(NC(=O)Cc1cccc(C(F)(F)F)c1)c1ccc(F)cc1 (stereo unspecified),-8,-2,-6,6,i,-1,2,0,
COC(=O)c1cc(NC(=O)Cc2cccs2)cc(C(=O)OC)c1,0,45,-14,14,i,-1,8,-12,
COCCCNC(=O)c1c(NC(=O)c2cccs2)sc2c1CCCC2,-40,-6,-8,3,i,-6,-6,-7,
O=C(COC(=O)C1=COCCO1)Nc1ncc(C(F)(F)F)cc1Cl,x,22,12,31,i,1,1,-11,
O=C1NC(=O)C2(CCCc3ccccc32)N1 (stereo unspecified),-6,-2,-1,-1,i,-1,-4,-7,
C/C(=N\NC(=O)c1nn(C)c(C)c1Br)c1cccc(NC(=O)c2ccc(F)cc2)c1,x,5,x,u,i,-1,-1,1,
CC/C(CC(=O)C(F)(F)F)=N\NC(=O)/C(C#N)=C/N(C)C,15,-2,-11,-1,i,1,3,x,
CCC/C(=N\NC(=O)C1CC1)c1ccc(Br)cc1,2,2,2,-7,i,0,0,-6,
CC(C)Cn1c(N)c(C(=O)COC(=O)c2c(F)cccc2F)c(=O)n(C)c1=O,-4,4,-16,-19,i,3,-6,23,
COc1cccc(N(C(=O)CNC(=O)c2ccco2)C(C(=O)NC2CCCC2)c2cccnc2)c1 (stereo unspecified),0,-13,-13,10,i,-1,4,x,
Cc1ccc(C2/C(=C(/O)c3ccc4c(c3)CC(C)O4)C(=O)C(=O)N2CCCn2ccnc2)cc1 (stereo unspecified),1,-16,-5,-10,i,2,8,-17,
c1cc2[nH]snc2c2nc(C3CC3)nc12,40,-7,-10,9,i,-19,-14,-19,
Cc1ccc2c(c1)N(CC(=O)NC1CCCCC1C)C(=O)CO2 (stereo unspecified),-53,3,13,4,i,5,5,-22,
Cc1ccc(S(=O)(=O)N2CCCOC2)cc1,x,-6,-8,-2,i,6,2,-7,
COc1ccc(OC)c(S(=O)(=O)NCCc2cn3ccsc3n2)c1,4,4,-10,0,i,-8,0,-16,
COc1ccccc1N1CCN(c2ccc([N+](=O)[O-])nc2)CC1,-13,-3,2,7,i,1,-3,-13,
O=C(CCC(=O)N1CCOc2ccccc21)N1CCCCC1,28,-7,1,-7,i,1,4,-21,
O=C(NCC1CC1)c1cc(-c2ccccc2)nn1CC1CC(c2cccc([N+](=O)[O-])c2)=NO1 (stereo unspecified),30,x,-5,x,+,4,0,-9,
C=CCNC(=S)Nc1nc2c(cc1C(=O)OCC)COC(C)(C)C2,9,-4,-4,-1,i,9,-4,-10,
CCOc1cccc2c1OC1(C)CC2NC(=O)N1c1cccc(C(=O)NCc2ccccn2)c1 (stereo unspecified),-8,-8,-3,0,i,0,2,-7,
COc1ccc(Cn2c(=O)sc3ccccc3c2=O)cc1,4,-2,x,8,x,2,-1,x,
O=c1[nH]cnc2ccsc12,6,5,8,4,i,2,1,x,
O=c1oc(/C=C/c2ccccc2)nc2ccccc12,-41,-5,x,10,i,8,-1,x,
Cc1cc(Cn2nc(-c3ccccc3C)cc2C(=O)O)on1,0,x,-27,x,x,3,3,-27,
O=C(COc1ccccc1Br)N1CCN(C(=O)c2ccco2)CC1,1,-1,-1,1,i,-1,1,0,
CC(=O)c1ccc(-c2nnc(CCC(=O)N(C)Cc3cccc4cnccc34)o2)s1,27,-7,-17,-6,i,-12,-6,x,
CC(CCc1ccc(O)cc1)NCCc1ccc(O)c(O)c1 (stereo unspecified),45,x,-1,x,i,3,0,-9,
CCN1CCN(c2ccc(S(=O)(=O)N3CCCCC3)cc2NC(=O)/C=C/c2cc(OC)ccc2OC)CC1,x,-13,0,36,i,-2,-8,9,
Cc1ccc(NC(=O)Nc2c(Cl)cccc2Cl)cn1,29,8,27,6,i,-3,-3,-17,
O=C(CSc1ccccc1)Nc1cccc(S(=O)(=O)N2CCCC2)c1,-44,3,2,-5,i,-5,3,-17,

# (listing goes on)
SMILES,HIV Env fusion,eIF4H FP inh,CSC inhib,PABP polyA inh,Rce1 inh,MT1-MMP act inh,MT1-MMP act inh RFP,Yeast UUG start,others
CCc1ccc(NC(=O)c2cc(C)nn2-c2ccccc2)cc1,-12,0,4,4,i,-5,-2,-1,
CCCOC(=O)Nc1cc(OC)c(Cl)cc1OC,-101,15,1,-1,i,-3,-2,0,
NC(=O)CSc1nnc(-c2cccc(S(=O)(=O)N3CCOCC3)c2)n1C1CCCCCC1,x,6,2,7,i,-2,1,-15,
CC1(C(=O)NS(=O)(=O)c2ccc(Cl)cc2)CCN1C(=O)CCc1cccs1 (stereo unspecified),5,x,x,x,x,3,9,-3,
Cc1nnc(NC(=O)C2(c3ccccc3)CCOCC2)s1,-15,-10,x,-6,i,-4,-7,-14,
Cc1ccc(N(Cc2cc(=O)[nH]c3ccccc23)C(=O)CCl)c(C)c1,55*,-7,48,5,i,-19,-10,x,
CSc1ccc(COC(=O)c2cc([N+](=O)[O-])ccc2N2CCOCC2)cc1,x,x,60,x,i,13,-3,x,
COCCNC(=O)C1CC(=O)N(CCc2ccccc2)C1 (stereo unspecified),x,-2,-15,7,i,1,-3,-16,
COc1ccc(NC(=O)CSCC(=O)N2CCN(c3cccc(C(F)(F)F)c3)CC2)cc1,-4,x,-1,x,x,2,0,2,
COc1cccc(/C=C/C(=O)c2ccc(C)c([N+](=O)[O-])c2)c1,-40,-2,24,-4,i,-3,3,-9,
O=C(c1ccc(CS(=O)Cc2ccccc2Cl)o1)N1CCN(c2cccc(Cl)c2)CC1 (stereo unspecified),23,-12,11,-3,i,-1,-4,12,
O=C1OC(CO)CN1Cc1ccccc1 (stereo unspecified),3,-4,-15,-6,i,-3,2,-5,
CCOC(=O)c1ccc(N/C=C/C(=O)c2ccccc2)cc1,-63,-11,-2,-4,i,3,2,x,
Cc1ccccc1C(=O)c1cccn1CC(=O)NC(C)CCc1ccccc1 (stereo unspecified),10,-1,-15,3,i,-3,-4,10,
COc1cc(C(=O)Nc2ccc(NC(=O)C(C)C)nc2)cc(OC)c1OC,x,3,x,15,i,6,2,-15,
C=CCn1c(=O)c(C(=O)NCc2ccc(Cl)cc2)c(O)c2ccccc21,19,-8,67,-14,i,-2,-4,-10,
CC(C)(C)NCCCCOc1ccccc1F,x,1,-3,-8,i,0,-1,-23,
O=C(CN1CCSCC1)N/N=C/c1ccc(F)cc1F,x,12,4,-7,i,-4,1,-17,
O=C(Nc1ccc(N2CCOCC2)c(Cl)c1)c1ccccc1Cl,1,-6,x,-9,i,-1,0,x,
CCc1cc2cc(C)cc(C)c2nc1SCC(=O)N1CCN(C(=O)c2ccco2)CC1,x,-8,116*,-5,x,-5,-6,-9,

# 6 successive compounds already listed, for reference:
SMILES,HIV Env fusion,eIF4H FP inh,CSC inhib,PABP polyA inh,Rce1 inh,MT1-MMP act inh,MT1-MMP act inh RFP,Yeast UUG start,others
CCOC(=O)c1ccc(N/C=C/C(=O)c2ccccc2)cc1,-63,-11,-2,-4,i,3,2,x,
Cc1ccccc1C(=O)c1cccn1CC(=O)NC(C)CCc1ccccc1 (stereo unspecified),10,-1,-15,3,i,-3,-4,10,
COc1cc(C(=O)Nc2ccc(NC(=O)C(C)C)nc2)cc(OC)c1OC,x,3,x,15,i,6,2,-15,
C=CCn1c(=O)c(C(=O)NCc2ccc(Cl)cc2)c(O)c2ccccc21,19,-8,67,-14,i,-2,-4,-10,
CC(C)(C)NCCCCOc1ccccc1F,x,1,-3,-8,i,0,-1,-23,
O=C(CN1CCSCC1)N/N=C/c1ccc(F)cc1F,x,12,4,-7,i,-4,1,-17,

# Remaining list, next part:
SMILES,HIV Env fusion,eIF4H FP inh,CSC inhib,PABP polyA inh,Rce1 inh,MT1-MMP act inh,MT1-MMP act inh RFP,Yeast UUG start,others
CCOC(=O)Cn1c(SC)nc2sc3c(c2c1=O)CC(C)(C)OC3,-5,-8,35,-3,i,-2,-3,-20,
O=C(CCN1CCc2ccccc2C1)Nc1cccc(F)c1,-62,-1,12,-5,i,0,3,-22,
C(=N\n1cnnc1)/c1cccc(Oc2ccccc2)c1,-18,8,5,18,i,2,-3,-18,
Cc1ccc(CN2CC(C(=O)Nc3ccncc3)CC2=O)cc1 (stereo unspecified),15,2,x,-6,i,-2,3,1,
FC(F)(F)c1cnc2c(c1)Nc1ccccc1S2,x,0,7,12,i,-9,1,-8,
O=C(CN1CCN(Cc2ccccc2Cl)CC1)N/N=C/C=C/c1ccco1,-2,1,7,-14,i,-1,1,-3,
COc1ccc(/C=C/C(=O)Oc2cccc(/C=N/NC(=O)c3cccc(F)c3)c2)cc1,-158,2,7,12,i,4,5,13,
Cc1ccc(CN2CCCN(Cc3ccc(F)cc3Cl)S2(=O)=O)cc1,-3,3,50,6,i,-1,2,-14,
CC1CC(C)CN(C(=O)CN2C(=O)NC(C)(C)C2=O)C1 (stereo unspecified),1,x,-7,x,i,-4,-2,-16,

# High-throughput results as filed in PubChem BioAssay.
